# Assay outcomes: PubChem, ICCB-Longwood Screening Facility, Harvard Medical School
# MgrA-DNA mod: S. aureus MgrA activity modulators, primary screen, biochemical, S. aureus Newman, fluorescence polarization; MgrA-DNA binding; inhibition, %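 (about 10 µg/mL by stock and volumes)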; 84,000 tested, 0.13% active; AID 602314, 2012;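 active = above 50% in either of two replicates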;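 note: 0% = protein plus DNA without compound and 100% = DNA alone without protein; higher means less MgrA bound to DNA so lower polarization; one replicate is shown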
# S aureus helic: inhibitors of S. aureus replicative helicase, primary screen, biochemical, fluorescence unwinding readout | replicative DNA helicase (DnaC/DnaB), Staphylococcus aureus | 120,000 tested, 0.05% active | inhibition, %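 (tested at about 80 µM)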 | purified S. aureus helicase, fluorescence unwinding assay; about half of the hits fall short of the stated cut;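 active = both duplicates at 50% or more, or one of them with a favoured structure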;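 note: 0% = mean of negative control wells and 100% = mean of positive control wells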
# Active calls of the source: *; . = not tested or not shown. Not all compounds are listed, so the mix of outcomes need not match the whole.
canonical_smiles	S aureus helic	MgrA-DNA mod
CCOCCOC(=O)C1=C(C)NC2=C(C(=O)CC(c3ccccc3)C2)C1c1cc(OC)ccc1OC (stereo not drawn)	.	-0.9
O=C(Cc1c[nH]c2ccccc12)NC1(C(=O)NC2CCCCC2)CCCCC1	1.0	2.3
Cc1onc(-c2ccccc2Cl)c1C(=O)Nc1ccc2c(c1)OCO2	.	3.0
CC1=C/C(=N/NC(=O)Cn2cnc3ccccc32)CC(C)(C)C1	-3.0	.
Cc1cc(C)n(Cc2ccccc2)n1	0.0	-0.5
O=C(O)CSCCOc1ccccc1	.	-3.7
N=C1SC2CS(=O)(=O)CC2N1/N=C/c1ccccc1 (stereo not drawn)	-3.0	.
Cc1nn(-c2ccccc2)nc1C(=O)c1c(C(C)(C)C)[nH]n(-c2ccccc2)c1=O	.	1.2
O=C1CCC=CN1c1cn[nH]c1-c1ccc(Cl)cc1	.	2.0
CCC(C)NC(=O)c1cc(-c2ccccc2)n[nH]1 (stereo not drawn)	-23.0	.
COc1ccc2nc(SC(=O)c3ccccc3)nc(C)c2c1	8.0	11.1
O=C(CSc1cccc[n+]1[O-])NCc1ccc(Cl)cc1	-5.0	-0.6
NCC(c1ccco1)c1c[nH]c2ccccc12 (stereo not drawn)	-12.0	.
COc1ccccc1Nc1c2c(nc3ccc(NC(=O)Cc4cccs4)cc13)CCCC2	16.0	-0.2
CCCN(C(=O)c1cc2cc3ccc(C)cc3nc2o1)c1cccc(C)c1	-3.0	-1.0
C=CCn1c(C)cc(C(=O)CSc2nnc(-c3cccs3)o2)c1C	-9.0	.
COc1ccc2c(c1OC)C(=O)OC2Nc1ncn[nH]1 (stereo not drawn)	8.0	.
CC(=O)Nc1ccc(S(=O)(=O)NCC2CCCO2)cc1 (stereo not drawn)	-2.0	.
Nc1ccc(-c2nc3cc(N)ccc3o2)cc1	27.0	.
CSC(=Nc1cccc(SC)c1)NC#N	.	-1.7

# Additional results follow:
canonical_smiles	S aureus helic	MgrA-DNA mod
CC1(C)CC(=O)C(N=Nc2ccc3c(c2)OCCO3)=C(O)C1	-12.0	.
Nc1nc(=S)c2ncn([C@@H]3O[C@H](CO)[C@@H](O)[C@H]3O)c2[nH]1	.	1.7
OCC1OC(Oc2cccc(O)c2CCCc2ccc(O)cc2)C(O)C(O)C1O (stereo not drawn)	12.0	-3.4
FC(F)(F)c1cccc(NCCNc2nccc(C(F)(F)F)n2)n1	-19.0	.
CCOC(=O)Cc1n[nH]c(=S)n1C1CCCCC1	20.0	.
CC(=O)Nc1ccc(S(=O)(=O)N(C)c2ccc(OCC(=O)OCC(=O)N3CCCCC3)cc2)cc1	-6.0	.
CC1CCCCC1NC(=O)c1cccc(N2CCCC2=O)c1 (stereo not drawn)	11.0	.
CCCn1c(NC(=O)Cc2coc3cc(OC)ccc23)nc2ccccc21	12.0	.
O=C(Cc1ccccc1)Nc1nnc(-c2ccccc2)o1	-10.0	.
CCOC(=O)c1c(/C=C/N(C)C)oc2ccc(O)cc12	.	2.2
CNc1ccccc1C(=O)OCC(=O)c1cccs1	-7.0	.
O=C(O)/C=C/C(=O)Nc1ccc(C(F)(F)F)cc1	-16.0	.
COCCn1c(SCC(=O)Nc2ccc3c(c2)OCO3)nnc1-c1c[nH]c2ccccc12	4.0	.
CCCSc1ncccc1C(=O)Nc1ccc(Oc2ccc(Cl)cc2)cc1	.	0.9
N#CCOC(=O)/C(=C\c1cccs1)c1cccs1	5.0	.
N#CC1(NC(=O)CN2CCCCC2c2nc3ccccc3s2)CCCC1 (stereo not drawn)	-2.0	.
Cc1cc(=O)[nH]c2[nH]n(-c3ccccc3)c(=O)c12	-1.0	-3.6
N#C/C(=C\c1ccc(O)cc1)c1nc2ccccc2[nH]1	.	0.5
Cc1ccc(S(=O)(=O)Cn2nnnc2CN2CCC(Cc3ccccc3)CC2)cc1	0.0	16.6
CCS(=O)(=O)c1ccc2oc(SCC(=O)N3CC(C)OC(C)C3)nc2c1 (stereo not drawn)	16.0	.

# More results follow:
canonical_smiles	S aureus helic	MgrA-DNA mod
CC(C)NC(=O)c1ccccc1N(Cc1ccccc1)S(C)(=O)=O	10.0	-0.8
CCN1C(=O)/C(=C2/Sc3ccc(OC)cc3N2CC)SC1=Nc1ccc2c(c1)OCCO2	-14.0	2.6
CCN(CC)c1ccc(NC(=O)c2ccc(Cl)cc2)cc1	.	3.5
O=C(NCCSCc1ccco1)C1CCCCC1	.	-0.2
COC(=O)CCC(=O)Nc1ccc(Oc2ccccc2)cc1	15.0	-1.8
CNc1ccc(-c2c(C#N)c(C#N)c(N)n2-c2ccc(C)cc2)cc1	-11.0	0.2
CC(Sc1nnc(N)s1)C(=O)Nc1ccc(N2CCOCC2)cc1 (stereo not drawn)	8.0	.
O=C(Cn1nc(-c2ccc(F)cc2)oc1=O)OCc1nnc(-c2cc3c(s2)CCCC3)o1	-3.0	.
CSc1ccc(/C=C/C(=O)Nc2ccc(-n3cnnn3)cc2)cc1	5.0	.
CCOc1ccc(CC(=O)NCC(c2ccc(OC)cc2)N2CCOCC2)cc1 (stereo not drawn)	10.0	.
CC1(C)CC(=O)C=C(NCC2NCCc3ccccc32)C1 (stereo not drawn)	-14.0	1.1
COC(=O)c1ccc(CSc2nc3ccc(C)cc3[nH]2)o1	8.0	.
COc1ccccc1/C=C1/C(=O)Nc2ccccc21	.	3.9
CC(=O)Nc1ccc(C(=O)COc2ccccc2O)cc1	-6.0	-2.5
O=C1CC2(CCCC2)C(=O)N1c1cc(C(F)(F)F)cc(C(F)(F)F)c1	.	-1.0
Cc1cccc(CCNS(=O)(=O)c2ccc3c(c2)CCN3C(=O)C2CCC2)c1	9.0	-1.3
CCNC(=O)CC1C(=O)N(c2ccccc2)C(=O)N1CCOC (stereo not drawn)	4.0	-1.2
COc1ccc(/C=C2/N=C(c3ccc([N+](=O)[O-])cc3)OC2=O)cc1Br	.	-2.1
COC(=O)c1cccc(Oc2ncnc3c2oc2ccccc23)c1	-12.0	.
CCN(Cc1ccccc1)C(=O)CSc1nncn2c1cc1occc12	12.0	4.2

# Later entries
canonical_smiles	S aureus helic	MgrA-DNA mod
Cc1ccc(OCc2nnc(SCc3cccc(C#N)c3)n2N)cc1C	4.0	6.5
COc1ccc(S(=O)(=O)N(C)Cc2ccc(OC)cc2OC)cc1	-11.0	.
O=C(Nc1ccccc1C(F)(F)F)c1ccco1	0.0	1.8
Cn1c(CSCC(=O)Nc2ccccc2)nnc1SCC(=O)c1ccccc1	.	-7.6
Cc1cc(C)c2c(CC(=O)Nc3c(C(=O)Nc4cccc(Cl)c4)oc4ccccc34)coc2c1	8.0	-1.2
CCN1CCN(C/C=C/c2ccccc2)CC1	6.0	1.5
NC(N)=NC(N)=NCc1ccco1	.	-1.0
O=C(NCc1ccc(F)cc1)/C(=C/c1cccs1)c1ccccc1	.	0.4
Cc1sc2c(c1C)C(=O)/C(=C\Nc1cccnc1)S(=O)(=O)N2C	.	-2.8
Cc1cc(C)cc(C(=O)Nc2ccc3[nH]c(=O)[nH]c3c2)c1	24.0	2.2
COc1ccc(C2c3sc(=O)[nH]c3SC3C(=O)N(c4ccccc4)C(=O)C32)cc1 (stereo not drawn)	-23.0	.
Cc1ccc(S(=O)(=O)CCc2nnc(NC(=O)c3ccc(C)c([N+](=O)[O-])c3)s2)cc1C	.	-1.5
CSc1nc2ccc(S(=O)(=O)Nc3ccccc3C)cc2s1	-9.0	2.9
CN(Cc1ccccc1)C(=O)CCN1C(=O)c2cccc([N+](=O)[O-])c2C1=O	.	-2.5
CC1C(=O)NN=C1C(=O)N/N=C\c1cccnc1 (stereo not drawn)	-3.0	1.1
N#Cc1cnc(Sc2nc3ccccc3s2)nc1N	.	-0.6
N#CCSc1nsc(SCC#N)n1	.	-2.0
COc1ccc(Cl)cc1S(=O)(=O)Nc1ccc2c(c1)COC2=O	-3.0	-3.4
COC(=O)C1C(=O)C=C(Nc2ccc(F)cc2)CC1c1ccccc1 (stereo not drawn)	-9.0	-0.5
CCC1=[N+](CC(=O)c2ccccc2)CCn2cccc21	-12.0	1.2

# Continuation.
canonical_smiles	S aureus helic	MgrA-DNA mod
CCCC(Nc1ccccn1)n1nnc2ccccc21 (stereo not drawn)	18.0	.
COc1ccc(C2C(C(=O)N3CCCCC3)c3ccccc3C(=O)N2C)cc1 (stereo not drawn)	3.0	3.8
CC(=O)Nc1ccc(F)cc1Br	.	-0.8
Cc1cnc(C(=O)Nc2ccc(S(=O)(=O)N(C)C)cc2)cn1	5.0	.
CCn1ccc(C(=O)Oc2ccc(C(C)C)cc2)n1	7.0	1.5
COc1cc(OC)cc(-n2c(=O)c3sccc3n(CC(=O)c3ccc(Cl)cc3)c2=O)c1	8.0	-0.4
Cc1cc(C(=O)CSc2nnc3n2CCCCC3)c(C)n1C1CCS(=O)(=O)C1 (stereo not drawn)	15.0	.
COCCn1c(=O)[nH]c2cc(C(=O)NCc3ccc(OC(F)(F)F)cc3)ccc21	7.0	-1.4
O=C(OCC(O)CN1CCN(c2ccccc2)CC1)c1ccccc1 (stereo not drawn)	4.0	.
CC(=O)N1c2ccccc2C(=O)C1N(C)Cc1ccccc1 (stereo not drawn)	1.0	.
CCCc1cc(C(=O)N2CCN(C(c3ccccc3)c3ccccc3)CC2)no1	13.0	.
O=S1(=O)CCN(Cc2ccc(N3CCOCC3)cc2)CC1	.	1.5
Cc1cn(Cc2ccccc2)c(=O)[nH]c1=O	8.0	-4.7
Fc1ccc(-c2nn3c(-c4ccc(Br)cc4)nnc3s2)cc1	.	0.5
CS(=O)(=O)CS(=O)(=O)Nc1ccc2c(c1)OCCO2	.	-1.1
Cc1ccc(S(=O)(=O)NC(=O)Nc2c(Cl)cc(C(F)(F)F)cc2Cl)cc1	.	1.1
CCOC(=O)C1CCN(C(=O)c2cc(-c3ccc(C)cc3)nc3ccccc23)CC1	-16.0	-1.1
CC(C)Cn1cc(NC(=O)N2CCCc3ccccc32)c2ccccc2c1=O	23.0	.
O=C(NNC(=O)c1ccc(Br)cc1)NC1CCCCC1	-7.0	.
Cc1[nH]c(C)c2c(=O)n(C)ncc12	0.0	.

# Five successive records from above:
canonical_smiles	S aureus helic	MgrA-DNA mod
CCCC(Nc1ccccn1)n1nnc2ccccc21 (stereo not drawn)	18.0	.
COc1ccc(C2C(C(=O)N3CCCCC3)c3ccccc3C(=O)N2C)cc1 (stereo not drawn)	3.0	3.8
CC(=O)Nc1ccc(F)cc1Br	.	-0.8
Cc1cnc(C(=O)Nc2ccc(S(=O)(=O)N(C)C)cc2)cn1	5.0	.
CCn1ccc(C(=O)Oc2ccc(C(C)C)cc2)n1	7.0	1.5

# Going on with the list:
canonical_smiles	S aureus helic	MgrA-DNA mod
Cc1ccc2c(CC(=O)OC3CCOC3=O)coc2c1 (stereo not drawn)	-2.0	.
COc1ccc(N=C2NC(=O)C(Cc3ccc(C)cc3)S2)cc1 (stereo not drawn)	16.0	.
COc1ccc(C2C3=C(CC(C)(C)CC3=O)Nc3cc(OC)c(OC)cc32)cc1 (stereo not drawn)	0.0	-1.9
COCC(=O)Nc1ccccc1C(C)C	12.0	0.8
CC(=O)Nc1nnc(CC(C)(C)C)s1	4.0	5.2
CC1Cn2c(C(=O)Nc3ccc(Cl)cc3)cc3cccc(c32)S1 (stereo not drawn)	20.0	.
Cc1ccccc1-c1nc(CN2CCCC(C(=O)O)C2)c(C)o1 (stereo not drawn)	-2.0	.
COc1cccc(NC(=O)C(C)N(c2ccccc2)S(C)(=O)=O)c1 (stereo not drawn)	22.0	.
CC(=O)Nc1ccc(-n2c(N)c(C(=O)NC3CCCC3)c3nc4ccccc4nc32)cc1	0.0	.
CC(C)(C)NC(=O)c1ccc2c3c(onc13)-c1ccccc1C2=O	-10.0	29.8
CC1CCCC(C)N1CCNC(=O)C1C2C=CC3(CN(Cc4ccccc4Cl)C(=O)C13)O2 (stereo not drawn)	9.0	0.8
O=C(O)CC1SC2=NCCN2C1=O (stereo not drawn)	10.0	-2.3
CC1CC(C)CN(CC(C)(C)NS(=O)(=O)c2ccccc2)C1 (stereo not drawn)	7.0	-4.2
CC(=O)SCC(=O)N=c1sc2ccccc2n1C	-18.0	.
N#CC(=C1CCCC1)c1nc(-c2ccccc2)cs1	-17.0	.
O=C(/C=C/c1ccco1)CC1(O)C(=O)N(Cc2ccccc2Cl)c2ccccc21 (stereo not drawn)	0.0	3.9
CC1CC(C)CN(c2cnnc3c(Cl)cccc23)C1 (stereo not drawn)	26.0	.
CC(C)c1ccccc1NC(=O)COc1ccc2ccc(=O)oc2c1	14.0	-1.6
CC(=O)NCc1ccc(-c2csc(N)n2)o1	-3.0	.
O=C(CSc1nnc(COc2ccccc2)n1Cc1ccco1)Nc1ccc2c(c1)OCO2	18.0	-0.2

# New compounds follow:
canonical_smiles	S aureus helic	MgrA-DNA mod
C(=N\n1cnnc1)/c1c[nH]c2ccccc12	4.0	.
Cc1ccc(NC(=O)c2ccc(F)c(S(=O)(=O)N3CCCC3)c2)cc1F	10.0	.
c1ccc(-c2nnsc2-c2ncc[nH]2)cc1	-5.0	.
O=C(CSc1ccccc1)Nc1nccs1	1.0	-2.0
NC(=O)COC(=O)c1cccc(C(F)(F)F)c1	11.0	.
Cc1ccc2nc(-c3ccc(NC(=S)NC(=O)Cc4ccccc4)cc3O)oc2c1	1.0	-0.3
CCOC(=O)c1ccc(/C=N/O)[n+](Cc2ccccc2)c1	7.0	2.0
COc1cc(NC(=O)c2c(-c3ccccc3)nnc3ccccc23)cc(OC)c1	.	-1.9
CC1CCC2(CC1)NC(=O)c1ccccc1N2C (stereo not drawn)	11.0	.
